2A firefly = lowers the firefly signal of an FMDV 2A StopGo reporter | AID 1745856 | Potency, µM (top dose mostly 57.5 µM), for inactives: at the top dose signal change, negative = less light | 120,000 compounds, 0.23% hits | HEK cells with a luciferase reporter of 2A StopGo recoding; active = well fitted falling curve with a large enough effect; inconclusive = small, poorly fitted or top-dose-only effect; inactive = no such curve, though single readings can be large or run the other way; also: nearly all actives have a fitted effect of over 60% in size; overnight with compound
StopGo RLuc = FMDV 2A StopGo reporter, Renilla signal | HEK cells with a luciferase reporter of 2A StopGo recoding | Potency, µM (highest dose often 57.5 µM), for inactives: top-dose signal change, negative = less light | 120,000 compounds, 0.32% hits; active means well fitted falling curve with a large enough effect; inconclusive means small, poorly fitted or top-dose-only effect; inactive means no such curve, though single readings can be large or run the other way; also: nearly all actives have a fitted effect of over 55% in size; overnight with compound
Numbers without * were called inactive; ? = inconclusive; & = joins results of further samples; [ ] = another dose, or the depositor's remark. % is scaled to controls: 0 for no effect and ±100 for the full control effect; potency is read from the fitted curve at half-maximal effect. Only part of the results is shown. The share of hits here may be higher or lower than overall.

Screens in order: 2A firefly | StopGo RLuc
> O=C1C(c2ccc(F)cc2)N(CCc2ccccc2)C(=O)CN1C1CCCCCC1 (centres undefined)
  6% | -5%
> COc1cccc(-c2nnc3n(Cc4ccc(C)cc4)c(=O)c4ccccc4n23)c1O
  -3% | 40%[activator]
> Cc1cccc(NC(=O)CCc2ncc(-c3ccc(F)cc3)o2)c1C
  10% | -3%
> Cc1ccc(S(=O)(=O)N2CCN(CCNC(=O)c3ccc(S(=O)(=O)N(C)C)cc3)CC2)cc1
  1% | 11%
> CC(C)C(NC(=O)C(C)(c1ccccc1)c1ccccc1)c1ccccc1 (centres undefined)
  -22% | -16%
> O=C1C(c2ccc(C(F)(F)F)cc2)=C(NC2CCCCCC2)c2ccccc21
  0% | 2%
> Cc1ccc2c(c1)cc1c(=O)n(Cc3ccc(Cl)cc3)nc(C)n12
  2% | 6%
> CC(c1ccccc1)N(C)C(=O)c1nn(C)c(=O)c2ccccc12 (centres undefined)
  -1% | -3%
> Cc1cc(C)cc(NS(=O)(=O)c2ccc3[nH]cc(C(=O)N4CCCCC4)c(=O)c3c2)c1
  ? | 88%[activator]
> CCCCC(=O)NC(Nc1ccccc1F)(C(F)(F)F)C(F)(F)F
  -8% | -5%
> CN1[C@@H]2CC[C@H]1CC(OC(=O)c1cc(Cl)cc(Cl)c1)C2 (some centres undefined)
  -21% | -12%
> Cc1ccc(C(=O)C(C)(C)NO)cc1
  4% | 6%
> Cc1cc(C)cc(NC(=O)CSc2oc(-c3ccco3)nc2S(=O)(=O)c2ccc(Cl)cc2)c1
  12% | 20%
> CC(=O)c1ccc(NC(=O)Cn2c3ncccc3c(=O)n2-c2ccc(C)cc2)cc1
  26% | -8%
> Cc1ccccc1NC(=O)CSc1nc(=O)[nH]c2c1CCCC2
  -5% | -11%
> Cc1ccc(S(=O)(=O)N2CCN(C(=O)c3cn(C)c4ccccc34)CC2)cc1
  -19% | 7%
> O=S(=O)(c1ccc(Sc2nnnn2C2CC2)nc1)N1CCCC1
  -5% | -12%
> COc1cccc(-n2c(=O)c3sc4ccccc4c3n(CC(=O)Nc3ccccc3OC)c2=O)c1
  16% | -12%
> COc1ccc2c(c1)CCc1c(C(=O)Nc3c(C)nn(Cc4ccccc4C)c3C)noc1-2
  ? | ?
> CC(OC(=O)c1ccc(C(N)=O)cc1)C(=O)NC12CC3CC(CC(C3)C1)C2 (centres undefined)
  10% | 16%
> CSc1ccc(C)c(C(=O)NC2CCCCC2)c1
  193%[activator] | 57%[activator]
> O=C(OCc1nc2ccccc2o1)c1cccc(F)c1
  20% | 7%
> O=S(=O)(c1ccc(Cl)s1)N1CCC(n2c(C(F)(F)F)nc3cccnc32)CC1
  -16% | -9%
> O=C(c1ccccc1)c1oc(-c2ccccc2)c(Cl)c1-c1ccccc1
  3% | 7%
> COc1ccc(NC(=O)c2c(NC(=O)C(F)(F)F)sc3c2CCCCC3)cc1
  -11% | -15%
> CC(C)C(=O)N(Cc1ccc(-c2cccc(Cl)c2)o1)C1CCS(=O)(=O)C1 (centres undefined)
  -10% | -9%
> CN1/C(=C/C(=O)COC(=O)c2cc3c(s2)CCC3)C(C)(C)c2ccccc21
  -7% | -3%
> COc1cccc(-n2ccnc2SCC(=O)Nc2nc3ccc(C)cc3s2)c1
  -3% | -9%
> CCCCc1cc2ccccc2c(OCCN(C)C)n1
  -8%[11.5 µM] | 50%[activator]
> CCCCCCNc1ncnc2c1sc1nc(N3CCOCC3)c3c(c12)CCCC3
  -15% | -12%

The list goes on:
Screens in order: 2A firefly | StopGo RLuc
> CN(Cc1ccc(C(=O)NCC(F)(F)F)cc1)C(=O)CCc1ccccc1
  19% | 26%
> CCCSc1nc2c(c(=O)n(C)c(=O)n2C)n1C/C=C/c1ccccc1
  ? | ?
> Cc1ccc(/C(O)=C2\C(=O)C(=O)NC2c2ccc(Br)cc2)cc1 (centres undefined)
  20% | -3%
> O=S(=O)(NCc1ccccc1Cn1cccn1)N1CCCCC1
  28% | 36%[activator]
> Cc1cc(NC(=O)c2cc(-c3ccc(Br)cc3)nc3ccccc23)nn1C
  ? | ?
> CCOc1ccccc1C(=O)Nc1ccc(S(=O)(=O)N(Cc2ccccc2)c2ccccc2)cc1
  -17% | -8%
> CCOC(=O)c1c(S(=O)(=O)N2CCCC(C(=O)N3CCN(c4cccc(C)c4C)CC3)C2)c(C)n(C)c1C (centres undefined)
  -25% | -9%
> COc1cc(C(=O)OCc2cc(=O)n3ccsc3n2)cc(OC)c1OC
  40%[activator] | 97%[activator]
> O=C(Nc1nnc(S(=O)(=O)N2CCCC2)s1)c1ccccc1F
  34%[activator] | 19%
> Cc1ccnc(SCCCn2c(Br)nc3c2c(=O)[nH]c(=O)n3C)n1
  1% | -10%
> O=C(CCC1CCCC1)NCc1ccc(CN2CCCC2)cc1
  3% | 2%
> Cc1cccc(NC(=O)c2ccc(F)c(S(=O)(=O)N3CCN(c4ccc(F)cc4)CC3)c2)c1
  ? | ?
> CCN1CCN(c2c(S(=O)(=O)c3ccc(C)c(C)c3)cnc3ccc(F)cc23)CC1
  -8% | 32%[activator]
> CCOC(=O)c1c(NC(=O)/C=C/c2ccc(Cl)cc2)sc2c1CCC(C)C2 (centres undefined)
  0% | -8%
> COc1cc(C(=O)Nc2cc(C)c(O)c(-c3nc4cc(Cl)ccc4o3)c2)cc(OC)c1OC
  -4% | -12%
> Cn1c(=O)[nH]c(=O)c2c1ncn2Cc1ccccc1
  6% | 5%
> C(#Cc1ccccc1)CSc1nc2ccccc2s1
  226%[activator] | 25%
> O=C(O)c1ccc(-c2ccc(CO)o2)cc1
  9% | -3%
> O=C(CSc1ccc(-c2ccccn2)nn1)Nc1ccc(F)c(F)c1
  ? | ?
> CC(C)c1ccc(N2C(=O)CSC23C(=O)N(Cc2cccc(F)c2)c2ccccc23)cc1 (centres undefined)
  -12% | -14%
> CC(C)c1ccc(NC(=O)C2CCCN(S(=O)(=O)c3cccc4nsnc34)C2)cc1 (centres undefined)
  2% | -8%
> Cc1ccc(-c2cc(C(=O)NCCC(c3ccccc3)c3ccccc3)c3ccccc3n2)cc1
  4% | 0%
> CN(Cc1ccc(F)cc1)S(=O)(=O)c1nnc(NC(=O)c2ccc(F)cc2)s1
  -12% | 19%
> CCCC(=O)N1CCc2cc(OC)c(OC)cc2C1COc1ccc(C(=O)OC)cc1 (centres undefined)
  -4% | -4%
> Cc1ccc(OCC(=O)Nc2nonc2-c2ccc(C)c(C)c2)cc1C
  9% | 5%
> CCC(Cn1nnc2ccccc2c1=O)NC(=O)Nc1ccccc1Cl (centres undefined)
  15%&-13% | 13%&-1%
> Cc1ccc(C(=O)n2nc(-c3ccc(C)cc3)nc2N)cc1
  1% | 0%
> Cc1cc(=O)n(CC(=O)Nc2ccc(Cl)c(Cl)c2)c(-n2nc(C)cc2C)n1
  22% | -21%
> O=C(Nc1cccc(Cl)c1)C1CCN(c2ncnc3nc[nH]c23)CC1
  5% | 0%
> CNC(=O)c1ccc(CN(C(=O)NCC(F)(F)F)C2CC2)cc1
  -1% | -2%

A second format for some results above.
Molecule,2A firefly,StopGo RLuc
CCCSc1nc2c(c(=O)n(C)c(=O)n2C)n1C/C=C/c1ccccc1,?,?
Cc1ccc(/C(O)=C2\C(=O)C(=O)NC2c2ccc(Br)cc2)cc1 (centres undefined),20%,-3%
O=S(=O)(NCc1ccccc1Cn1cccn1)N1CCCCC1,28%,36%[activator]
Cc1cc(NC(=O)c2cc(-c3ccc(Br)cc3)nc3ccccc23)nn1C,?,?
CCOc1ccccc1C(=O)Nc1ccc(S(=O)(=O)N(Cc2ccccc2)c2ccccc2)cc1,-17%,-8%
CCOC(=O)c1c(S(=O)(=O)N2CCCC(C(=O)N3CCN(c4cccc(C)c4C)CC3)C2)c(C)n(C)c1C (centres undefined),-25%,-9%

(continued)
Screens in order: 2A firefly | StopGo RLuc
> CCc1ccccc1/C=C/C(=O)O
  8% | 16%
> CCC(C)NC(=O)C1CCN(C(=O)c2cc3sccc3n2Cc2ccc(Cl)cc2)CC1 (centres undefined)
  ? | ?
> CCOC(=O)C1CCN(C(=O)C2COc3ccccc3C2)CC1 (centres undefined)
  -10% | 24%
> COc1ccc(NS(=O)(=O)c2cc3c4c(c2)CC(=O)N4CCC3)cc1Cl
  -20% | 200%[activator]
> COc1ccccc1NC(=O)N1CCC(CN2CCc3ccccc3C2)CC1
  -10% | -16%
> COc1ccc(C(=O)Nc2ccc3oc(-c4ccccc4)cc(=O)c3c2)cc1
  120%[activator] | 3%
> Clc1cccc(Nc2ncnc3onc(-c4cccc(Cl)c4)c23)c1
  19% | 5%
> Cc1ccc2c(c1)c(=O)c1ccccc1n2CCCC(=O)Nc1ccc(C)c(F)c1
  -14% | -3%
> CC1CCCC(NC(=O)c2ccc(C#N)cc2)C1C (centres undefined)
  0% | 12%
> COc1ccc2c(c1)sc1ncc(C(=O)NCc3ccc(OC(C)C)cc3)c(=O)n12
  -10% | -7%
> CC(=O)c1ccc(N2CCN(C(C(=O)O)c3c[nH]c4ccc(OCc5ccccc5)cc34)CC2)cc1 (centres undefined)
  5% | -10%
> CCCCc1ccc(NC(=O)CSc2nnc(-c3cc(-c4ccccc4)n[nH]3)n2N)cc1
  4% | -10%
> Cc1cc(C)c(NS(=O)(=O)c2ccc(-c3coc(C)n3)cc2)c(C)c1
  -12% | -5%
> COc1ccc(CNC(=O)CN(C)C(=O)c2ccc3c(c2)nnn3C)cc1
  -3% | -8%
> CCOC(=O)CSc1nc(N2CCCCC2)c2c(c1C#N)CCCC2
  27% | 24%
> C/C(=N\O)c1cc(C(C)(C)C)c(O)c(C(C)(C)C)c1
  0%&27% | 5%[1.06 µM]
> Nc1ccc(-c2cc(C(=O)O)c3ccccc3n2)cc1
  26% | -10%
> COc1ccc(C(=O)N(Cc2c(F)cccc2Cl)c2ccccn2)cc1
  10% | ?
> Cc1nc(NC2CCCC2)sc1C(=O)NC1CC1
  20% | -2%
> CCN(CC)c1sc(S(=O)(=O)CC)nc1S(=O)(=O)c1ccc(C)cc1
  -2% | 81%[activator]
> Cc1ccc(CNC(=O)c2cc3c(s2)-c2c(C)cccc2OC3)cc1
  -7% | -2%
> CN(CC(=O)Nc1cccc(F)c1)C(=O)Cc1csc(-c2ccccc2)n1
  40%[activator] | 39%[activator]
> O=C(CCC1CCCC1)NCC(c1cccs1)N1CCCC1 (centres undefined)
  20% | -1%
> O=C(c1cc(=O)c2ccccc2o1)N1CCN(C(c2ccccc2)c2ccccc2)CC1
  1% | -4%
> CC(/C=C/c1ccccc1)=N\NC(=O)c1ccc(C)cc1
  161%[activator] | 22%
> COc1ccc(/C=C/C(=O)N2CC(C)CC(C)C2)cc1 (centres undefined)
  0% | 27%
> CCc1ccccc1NC(=O)CN1CCN(C(=O)c2oc3ccccc3c2C)CC1
  1% | 13%
> CC(C)C(C)NC(=O)CSc1nc(C2CC2)nc2ccccc12 (centres undefined)
  -22% | -35%
> O=C(Nc1cccc(F)c1)c1ccc(-c2ccccc2)s1
  230%[activator] | 15%
> COc1ccccc1CCNC(=O)CCc1c(C)c2cc3c(C)c(C)oc3cc2oc1=O
  0% | -15%

One compound at a time, from the list above:
CC(=O)c1ccc(N2CCN(C(C(=O)O)c3c[nH]c4ccc(OCc5ccccc5)cc34)CC2)cc1 (centres undefined) is entered as 2A firefly = 5%; StopGo RLuc = -10%
O=C(c1ccccc1)c1oc(-c2ccccc2)c(Cl)c1-c1ccccc1 is entered as 2A firefly = 3%; StopGo RLuc = 7%
CCCSc1nc2c(c(=O)n(C)c(=O)n2C)n1C/C=C/c1ccccc1 is entered as 2A firefly = ?; StopGo RLuc = ?

2 entries drawn at random from those above:
Screens in order: 2A firefly | StopGo RLuc
> Cc1ccc(CNC(=O)c2cc3c(s2)-c2c(C)cccc2OC3)cc1
  -7% | -2%
> COc1ccc(C(=O)N(Cc2c(F)cccc2Cl)c2ccccn2)cc1
  10% | ?

New compounds follow:
Screens in order: 2A firefly | StopGo RLuc
> CCOc1ccc(C(=O)N2CCC(c3nc(-c4ccc(S(=O)(=O)N5CCCC5)cc4)no3)CC2)cc1
  -19% | -7%
> CC(C)n1nc(C(=O)NCCCN2CCCC2)c2ccccc2c1=O
  -18% | -17%
> CC(=O)N1CCc2c(sc3c2c(=O)n(-c2ccccc2)c(=O)n3CC(=O)Nc2ccccc2C)C1
  -15% | -12%
> CC(CCc1ccccc1)NC(=O)Cn1c(=O)c2c(ncn2C)n(C)c1=O (centres undefined)
  -4% | -7%
> CNc1c(NC(=O)CC(=O)OC)c(=O)oc2ccccc12
  -6% | -3%
> Cc1ccc(NC(=S)NNC(=O)Nc2ccc(Cl)cc2)cc1
  0% | 79%[activator]
> CN(C(=O)CSc1nc2ccccc2n1CC(=O)N(C)c1ccc(F)cc1)c1ccccc1
  -12% | 38%[activator]
> O=C(NCCC(=O)N1CCCC1)c1cc2ccccc2oc1=O
  20% | -12%
> COCCNC(=O)CCCn1c(=O)[nH]c2ccsc2c1=O
  -12% | -7%
> CC(Sc1n[nH]c(-c2cccs2)n1)C(=O)Nc1c(F)cccc1F (centres undefined)
  11% | 12%
> Cc1ccc2[nH]c(C)c(CCN(Cc3ccccn3)C(=S)NC(C)(C)C)c2c1
  -21% | 0%
> Cc1cccc(NC(NC(=O)c2ccccc2C)C(Cl)(Cl)Cl)c1 (centres undefined)
  23% | 10%
> COc1ccc(CNC(=O)c2ccc3c(c2)NC(=O)CCS3)cc1OC
  0% | 0%
